Assay outcomes deposited in PubChem by Southern Research Institute.
motility: Vibrio cholerae motility inhibitors, OD read-out (AID 588778); Vibrio cholerae motility, OD read-out; higher % means a stronger effect; test concentration not given here; primary cut-off and reference of the scale not given here; strong numbers were not always called active; 10,000 tested, under 10 active; inhibition, %; hits with a dose series show IC50 in µg/mL; in the data active means confirmed in a dose series
motility viability: second read-out of motility, no call of its own (marks repeat the call); inhibition, %; measured here: bacterial viability at 10 ug/mL;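 higher means fewer living bacteria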
An asterisk follows results filed as active.

SMILES	motility	motility viability
COc1ccc(/C=C/C(=O)N2CCc3ccccc3C2)cc1	12%	8
COc1ccc2c(c1)C(=O)CCC2c1ccccc1 (centres undefined)	18%	-2
COc1cc(Cl)c(S(=O)(=O)N2CCN(C/C=C/c3ccccc3)CC2)cc1Cl	-13%	-11
Cc1ccc(S(=O)(=O)Nc2cc3c(c4ccccc24)OC2(C3)N(C)c3ccccc3C2(C)C)c(C)c1 (centres undefined)	10%	23
O=C(O)CCCn1nnc(-c2ccc(F)cc2)n1	2%	33
CC(C)(O)C#Cc1ccc(C(=O)NCc2ccc3c(c2)OCO3)cc1	2%	1
O=C(Cc1c(F)cccc1Cl)N1CCN(C(=O)c2ccco2)CC1	-13%	0
Cc1cccc(C(=O)Nc2nnc(/C(C#N)=C/c3ccc(N(C)C)cc3)s2)c1	3%	6
Cc1nn(Cc2ccccc2)c2ncccc12	50%	22
O=C(c1ccco1)N(O)c1ccccc1	-3%	-4
COc1ccc2oc(-c3cccc(NC(=O)c4ccc([N+](=O)[O-])o4)c3)nc2c1	8%	0
COc1cc(C(=O)NCc2ccc(CC(C)C)nc2SC)cc(OC)c1OC	16%	4
CC(Oc1ccccc1F)C(=O)NC1CCS(=O)(=O)C1 (centres undefined)	-6%	-7
Cc1cc(N/C=C(\C#N)C(N)=S)no1	19%	3
CC(C)Cc1nnc(NC(=O)CSc2nc3ccccc3c(=O)[nH]2)s1	12%	-6
Cc1cc(Br)ccc1OCCCCNC(C)(C)C	42%	13
O=C(NC(=S)Nc1ccc(Cl)cc1C(F)(F)F)c1ccccc1I	-7%	-8
Cn1c(=O)c2c(nc(NCc3cccnc3)n2Cc2c(F)cccc2Cl)n(C)c1=O	14%	24
O=C1C(Cl)=C(N2CCOCC2)C(=O)N1c1cccc(Cl)c1Cl	-6%	-1
N#Cc1c(Nc2ccccc2)sc(C(=O)Nc2cccc(C(F)(F)F)c2)c1N	1%	-1
COc1cc(NC(=S)NCc2ccco2)c(OC)cc1Cl	-7%	-1
O=C1CCCC2=C1C(c1c[nH]c3ccccc13)Nc1ccc(C(=O)c3ccccc3)cc1N2 (centres undefined)	12%	5
O=C(CCS(=O)(=O)C(Cl)Cl)NCc1ccccc1	30%	9
CC(=O)Oc1ccc(N(C(C)=O)S(=O)(=O)c2ccc(Br)cc2)c2ccccc12	3%	4
O=C(O)c1ccc(CNS(=O)(=O)c2ccc(Cl)c(C(F)(F)F)c2)cc1	1%	6
COc1cc(Cl)c(C)cc1NC(=O)c1cccs1	11%	3
COc1ccc(C(=O)Cc2cc(OC)c(OC)cc2Br)c(OC)c1	-2%	-3
CS(=O)(=O)N(CC(=O)NCc1ccco1)c1ccc(I)cc1	3%	-2
Cc1ccc(N2CCN(C(=O)c3cccc(Br)c3)CC2)c(C)c1	0%	8
Cc1ccccc1NC(=O)NNc1ccc(F)cc1	16%	1

Entries of single compounds from above:
Record of O=C(O)c1ccc(CNS(=O)(=O)c2ccc(Cl)c(C(F)(F)F)c2)cc1 → motility = 1%; motility viability = 6
Record of Cc1ccccc1NC(=O)NNc1ccc(F)cc1 → motility = 16%; motility viability = 1

Continued:
SMILES	motility	motility viability
S=C(Nc1ccc(Cl)cn1)Nc1cccc(Cl)c1Cl	-5%	-2
CCOC(=O)C1(C(=O)OCC)CCC1	-26%	-14
O=c1cc(C(F)(F)F)[nH]n1-c1ccc([N+](=O)[O-])cc1	22%	4
COc1ccccc1C(=O)NCCSCc1c(F)cccc1Cl	7%	8
CCN(Cc1ccncc1)C(=S)NCCc1ccccc1	10%	-8
Cc1cc(Br)ccc1NC(=O)C(=O)NCc1cccs1	-16%	-7
O=C1c2ccccc2C(=O)N1Cc1cc(Cl)c2cccnc2c1O	12%	-1
Cc1cc(C)c(OCCOc2cccc3cccnc23)c(Br)c1	5%	24
CC(=O)N1CCN(c2ccc(NCc3ccc(OCc4cccs4)cc3)cc2)CC1	-4%	-7
COC(=O)c1noc(-c2ccc(F)cc2)n1	40%	13
COc1ccccc1CNS(=O)(=O)Cc1ccc(Cl)cc1	25%	2
CCN(CC)S(=O)(=O)c1ccc(OC)c(NC(=O)CS(=O)(=O)Cc2ccccc2)c1	-20%	-11
CC(C)N(C(=O)Cn1c(=O)[nH]c2ccccc21)c1ccccc1	2%	-7
CN(CCO)S(=O)(=O)c1ccc2c(c1)oc(=O)c1cc(S(=O)(=O)N(C)CCO)ccc12	9%	0
NC(=O)C1CCCCc2c1[nH]c1ccc(Cl)cc21 (centres undefined)	-2%	-6
Nc1nc(-c2cccnc2)nn1C(=O)COc1ccccc1	1%	5
Cc1cc(S(=O)(=O)NCC(C)C)ccc1OCC(=O)NCc1ccncc1	4%	1
CCOC(=O)c1ccc(N2C(=O)CC(NC3CCN(C(=O)c4ccc(F)cc4)CC3)C2=O)cc1 (centres undefined)	7%	-5
CCCOc1ccc(N2C(=O)CC(N3CC=C(c4ccccc4)CC3)C2=O)cc1 (centres undefined)	-7%	-3
O=c1/c(=C/c2ccc([N+](=O)[O-])cc2)c2cccc3cccc1c32	7%	11
CC1CC(C)(C)N(C(=O)c2cccs2)c2ccc(OC(=O)c3cccs3)cc21 (centres undefined)	-8%	4
Cc1nc(N2C(=O)C(O)=C(C(=O)c3cccs3)C2c2ccco2)sc1C (centres undefined)	0%	18
Cc1ccc(N/C(N)=N/c2nc(C)cc(=O)[nH]2)c(C)c1	-29%	-1
COc1ccccc1NC(=O)Nc1ccc2c(c1)nnn2C	-6%	4
COc1cc(-c2nnc3sc(-c4cccnc4)nn23)cc(OC)c1OC	-11%	-5
Cc1cc(C)nc(SCCCn2c(=O)[nH]c3ccccc32)n1	-3%	-11
CC(C)N(C(=O)CN(C#N)c1nc(N(C)C)nc(N(C)C)n1)c1ccccc1	9%	-6
Cn1c(SCC(=O)c2ccc3c(c2)CCCC3)nc2ccccc2c1=O	-1%	1
O=C(CSc1ccc(Cl)cc1)NC1CCS(=O)(=O)C1 (centres undefined)	3%	3
COc1cc(OC)cc(C(=O)N(CCCCN2C(=O)c3ccccc3C2=O)c2ccc(F)cc2F)c1	-11%	-3
Cc1c(NC(=O)c2nn3c(C(F)(F)F)c4c(nc3c2Cl)-c2ccccc2CC4)c(=O)n(-c2ccccc2)n1C	-11%	-1
CC(=O)C(Sc1ccccc1)C(=O)c1ccccc1 (centres undefined)	16%	13
c1ccc2oc(N3CCCCC3)nc2c1	7%	1
CCc1ccc(C(=O)NCc2cnn(C)c2)s1	0%	-1
CCN(Cc1cc2ccccc2[nH]c1=O)C(=O)Cc1cccc2ccccc12	12%	7
O=C(NC(=S)NCc1ccco1)C1CC1	10%	3
O=C(O)CSc1nc2cc(N3CCOCC3)c(F)cc2[nH]1	-4%	1
Cn1c(=O)n(C)c2cc(C(=O)Nc3ccc4c(c3)OCO4)ccc21	-8%	4
Cc1nc(N)sc1-c1nnc(Nc2ccccc2)s1	6%	-15
Cc1cc(=O)oc2ccc(OC(=O)Cc3cccs3)cc12	-1%	-1
CC(C)(C)C1CCC(OCC(O)CN2CCN(c3ccc(F)cc3)CC2)CC1 (centres undefined)	25%	51
O=C(O)CCCC(=O)Nc1c(F)c(F)c(F)c(F)c1F	-6%	-7
COc1ccccc1N1C(=O)c2cccc3cc(Br)cc(c23)C1=O	16%	7
COc1ccc(NC(=O)c2ccccc2NS(C)(=O)=O)c(OC)c1	0%	-4
O=C(O)Cc1nnc(-c2cccnc2)n1Cc1ccccc1	-4%	-4

In the list so far, these contain a furan ring, fused or not.
SMILES	motility	motility viability
O=C(Cc1c(F)cccc1Cl)N1CCN(C(=O)c2ccco2)CC1	-13%	0
O=C(c1ccco1)N(O)c1ccccc1	-3%	-4
COc1ccc2oc(-c3cccc(NC(=O)c4ccc([N+](=O)[O-])o4)c3)nc2c1	8%	0
COc1cc(NC(=S)NCc2ccco2)c(OC)cc1Cl	-7%	-1
CS(=O)(=O)N(CC(=O)NCc1ccco1)c1ccc(I)cc1	3%	-2
Cc1nc(N2C(=O)C(O)=C(C(=O)c3cccs3)C2c2ccco2)sc1C (centres undefined)	0%	18
O=C(NC(=S)NCc1ccco1)C1CC1	10%	3

Further records follow.
SMILES	motility	motility viability
O=C(O)C1CCC(CNS(=O)(=O)c2ccc(Br)cc2)CC1 (centres undefined)	0%	2
CCC(C(=O)Nc1sccc1C(N)=O)c1ccccc1 (centres undefined)	-14%	-8
O=C(c1ccco1)N1CC2CC(C1)c1cccc(=O)n1C2 (centres undefined)	3%	-6
S=c1[nH]nc(-c2ccc(Cl)cc2)n1N=Cc1cccnc1	1%	-4
NCCSC1CC(=O)N(Cc2ccc(F)cc2)C1=O (centres undefined)	14%	5
O=C(Nc1ccc(-c2nc3ccc(Cl)cc3c(=O)o2)cc1)c1ccco1	-12%	14
CC(=O)NC1=NN(C(C)=O)C2(CCCC2)S1	-5%	-2
S=C(NCc1ccccn1)Nc1ccccc1	-14%	5
COc1ccc(S(=O)(=O)NCC#N)cc1	-33%	-2
CCOC(=O)c1c(C)n(Cc2ccccc2)c2ccc(OCC(O)CN3C(=O)CNC3=O)cc12 (centres undefined)	-6%	-6
O=C(CSc1nc2ccccc2n1-c1ccccc1)N1CCN(c2ccccc2)CC1	-16%	-5
O=C(Nc1cccc(Cl)c1Cl)C1CCN(C(=O)c2ccc(F)cc2)CC1	19%	2
CSc1ncc(Cl)c(C(=O)N(Cc2ccccc2)Cc2ccco2)n1	2%	3
COc1ccc(NC(=O)C2CCN(S(=O)(=O)c3ccc(Br)cc3)CC2)cc1Cl	-21%	2
CC1(C)Cc2c(sc3ncn4nc(C5COc6ccccc6O5)nc4c23)CO1 (centres undefined)	-14%	4
CS(=O)(=O)Nc1ccc2[nH]c(=O)[nH]c2c1	8%	22
O=C1NCC(Cn2c3ccccc3c3ccccc32)O1 (centres undefined)	22%	6
N/C(=N\OC(=O)c1ccc(Cl)c(Cl)c1)c1nonc1N	-26%	-10
CCOc1ccccc1C(=O)Nc1nnc(CNS(=O)(=O)c2ccc(C)cc2)s1	31%	3
O=C(NCc1ccco1)c1ccc2c3c(cccc13)CC2	14%	1
COc1ccc(C(=O)Nn2cc3c(c2-c2ccccc2)c(=O)n(C)c(=O)n3C)cc1	-3%	9
COc1cc(CN2CCNCC2CCO)cc(OC)c1 (centres undefined)	1%	1
O=c1cccc2n1CC1CC2CN(C(=S)Nc2cc(C(F)(F)F)ccc2Cl)C1 (centres undefined)	16%	30
O=C(CCc1ccc(S(=O)(=O)NCCc2ccccc2)cc1)N1CCN(c2cccc(Cl)c2)CC1	0%	-4
Cc1ccc(-n2c(C)cc(/C=C(\C#N)C(N)=O)c2C)cc1I	-11%	-11
CCCN(CC1CC1)C(=S)Nc1cccc(OC)c1	-7%	-3
COC(=O)Nc1nn(Cc2ccccc2F)cc1Br	45%	13
O=C(c1cc([N+](=O)[O-])ccc1NCc1cccnc1)N1CCOCC1	6%	2
Cc1cc(C)n2c(nc3ccccc32)c1C(=O)O	12%	-4
COc1ccccc1Nc1nc(N)nc(CSc2nc3ccccc3s2)n1	7%	-6

Look-ups from the list:
Result for O=C(CCc1ccc(S(=O)(=O)NCCc2ccccc2)cc1)N1CCN(c2cccc(Cl)c2)CC1 in motility: 0%
Result for CCOc1ccccc1C(=O)Nc1nnc(CNS(=O)(=O)c2ccc(C)cc2)s1 in motility: 31%

Going on with the list.
SMILES	motility	motility viability
CC(C(=O)Nc1ncccn1)(c1ccccc1)c1ccccc1	4%	1
O=[N+]([O-])c1c(Nc2ccc(F)cc2)[nH]c2ccc(F)cc12	-4%	-1
CN(C)C(=O)Oc1c(I)cc(Cl)c2cccnc12	1%	1
CC(C)(NO)C(=O)c1ccc(Cl)cc1	2%	-5
COc1cc(Cc2nccc3cc(OC)c(OC)cc23)c(NC(=O)c2cccs2)cc1OC	1%	10
Cc1cc(C)nc(N(C#N)C(C)C(=O)N(C)C)n1 (centres undefined)	0%	-8
CC(=O)Nc1c(Cl)cc(C23CC4CC(CC(C4)C2)C3)cc1Cl	52%	13
CC(C)NC(=O)c1cccc2ccccc12	-5%	24
N#Cc1c(SCC(=O)Nc2ccccc2)ncc2cc3ccccc3nc12	-6%	-4
O=C(Nc1nc(-c2ccc(F)cc2)cs1)c1cnccn1	-36%	-13
O=C(NCc1ccccn1)c1csc2ccccc12	37%	12
N#C/C(=C\c1cc2ccccc2oc1=O)c1nc2ccccc2[nH]1	0%	-2
Fc1ccc(N2CCN(Cc3cc4c(cc3Br)OCO4)CC2)cc1	17%	8
COc1ccc(Br)cc1C(=O)Nc1ccc(-c2nnc(-c3ccco3)o2)cc1	3%	-1
S=C(NCC1CCCCC1)Nc1cccnc1	29%	9

Ordered by molar mass (rising): some entries from above
SMILES	motility	motility viability
CC(C)NC(=O)c1cccc2ccccc12	-5%	24
CC(C(=O)Nc1ncccn1)(c1ccccc1)c1ccccc1	4%	1
COc1cc(Cc2nccc3cc(OC)c(OC)cc23)c(NC(=O)c2cccs2)cc1OC	1%	10

Following part.
SMILES	motility	motility viability
O=C(CSc1ccccn1)Nc1nnc(SCc2cccc(Br)c2)s1	-3%	8
CCCCN1CCC(O)(c2ccccc2)C(C(=O)c2ccccc2)C1 (centres undefined)	30%	6
CC(C)OC(=O)C(N)Cc1ccccc1 (centres undefined)	26%	5
Cn1c(SCC(=O)C(C)(C)C)nnc1-c1ccncc1	-2%	0
C=CCn1c(-c2ccc3ccccc3n2)n[nH]c1=S	-5%	-2
CC(C)(C)c1cc(N)n2nc(C(C)(C)C)cc2n1	-1%	-3
COc1ccccc1NC(=O)CSC1CC(=O)N(c2ccc3c(c2)OCO3)C1=O (centres undefined)	14%	25
CCCOc1c(Cl)cc(C2C3=C(CCCC3=O)N(CC(=O)O)C3=C2C(=O)CCC3)cc1OC	13%	0
O=C(CSc1ccc(Cl)cc1)Nc1ccc(N2CCN(Cc3ccccc3F)CC2)cc1	2%	13
O=C(NCCCCO)c1ccc2c3c(cccc13)CC2	25%	15

Some of the compounds tested; the hit share may differ from the screen's.
